CtBP-E1A inh = inhibitors of CtBP/E1A interaction; AlphaScreen GST-E1A/His-CtBP binding, 1536-well; active compounds read low; control for the full effect not named in the record; activity change, % (concentration not given with the values); hit rate 0.49% among 340,000; AID 651724; in the data active means activity change below about -65%; inconclusive means about -30% to -65%; inactive means above about -30%; further: on the % scale 0 is the no-effect control and ±100 the full control effect
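AlphaScreen with 125 nM GST-E1A and 125 nM His-CtBP (5X stocks) in Tris pH 8.0, 300 mM NaCl, BSA, Tween 20, TCEP. Compounds preincubated 2 h at 37 deg C, then glutathione donor/nickel acceptor beads added for 1 h at 37 deg C in dark.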
PINK1 expr mod = changes PINK1 expression. PINK1 immunofluorescence, high-content cytometry, 24 h. Potency, µM (series often up to 76.6 µM), for inactives: top-dose activation (PINK1 increase), most hits filed as activators. hit rate 0.2% among 410,000; active = well fitted activation curve with a large enough effect; inconclusive = small, poorly fitted or top-dose-only effect; inactive = flat fitted curve, though single readings scatter; cell line not stated here;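 further: potency means the concentration at half of the fitted maximal effect; % of control where 0% means no effect; nearly all actives have a fitted effect of over 65% in size; a mitochondrial uncoupler was the plate control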
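Stable cell line treated 24 h with compounds at 5 concentrations (CCCP controls), then fixed and immunostained for PINK1 plus nuclear and cell stains; PINK1 immunofluorescence quantified by laser-scanning microplate cytometry.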
TRPV1 potentiator = enhances activation of the human vanilloid receptor TRPV1 | Q8NER1 | TRPV1-expressing cells, Fluo-8 calcium influx, capsaicin EC20 potentiation; host cell line not named in the record; control for the full effect not named in the record | potentiation, % at 8.33 µM | hit rate 0.02% among 320,000; active means potentiation above 80%; inconclusive means 30% to 80%; inactive means below 30%; further: 0% is about no effect
Target sequence (Q8NER1 whole entry, looked up): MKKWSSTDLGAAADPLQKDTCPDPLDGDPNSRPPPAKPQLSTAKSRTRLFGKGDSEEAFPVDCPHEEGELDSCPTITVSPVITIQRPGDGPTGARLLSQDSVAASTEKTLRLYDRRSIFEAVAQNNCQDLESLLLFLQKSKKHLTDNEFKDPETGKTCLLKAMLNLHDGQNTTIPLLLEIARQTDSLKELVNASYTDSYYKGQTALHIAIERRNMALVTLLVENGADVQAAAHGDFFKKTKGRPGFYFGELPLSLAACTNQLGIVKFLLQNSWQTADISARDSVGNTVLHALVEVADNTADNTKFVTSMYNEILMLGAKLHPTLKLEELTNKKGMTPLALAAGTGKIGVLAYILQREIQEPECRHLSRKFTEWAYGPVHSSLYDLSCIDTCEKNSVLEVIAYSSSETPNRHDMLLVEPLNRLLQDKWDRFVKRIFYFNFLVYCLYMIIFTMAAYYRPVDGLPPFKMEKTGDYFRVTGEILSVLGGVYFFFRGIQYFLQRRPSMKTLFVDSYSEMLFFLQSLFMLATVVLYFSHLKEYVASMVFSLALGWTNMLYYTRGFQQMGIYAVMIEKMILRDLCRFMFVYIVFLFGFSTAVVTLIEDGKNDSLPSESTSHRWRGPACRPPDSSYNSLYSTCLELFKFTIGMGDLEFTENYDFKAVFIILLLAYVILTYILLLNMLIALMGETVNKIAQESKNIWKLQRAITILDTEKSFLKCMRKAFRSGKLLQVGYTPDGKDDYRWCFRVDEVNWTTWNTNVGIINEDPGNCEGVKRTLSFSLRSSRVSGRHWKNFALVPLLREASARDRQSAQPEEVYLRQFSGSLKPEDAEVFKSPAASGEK
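Cells expressing TRPV1 were dye-loaded with Fluo-8 and read kinetically: 10 s baseline, 3 min after compound (agonist portion), then 2 min after EC20 capsaicin (allosteric enhancer portion). Calcium-bound dye fluorescence at 480/520 nm.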
Sfp PPTase inh = Sfp phosphopantetheinyl transferase inhibition; Biochemical Sfp PPTase activity, qHTS; hit rate 3.5% among 310,000; Potency, µM, without a hit: max response, negative = inhibition, actives largely listed as inhibitors; active means well fitted inhibition curve with a large enough effect; inconclusive means small, poorly fitted or top-dose-only effect, or another doubt; inactive means no such curve, though single readings can be large or run the other way;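 further: the enzyme is Sfp with the accession as filed and its product quenches rhodamine fluorescence; potency means the concentration at half of the fitted maximal effect; 0% = enzyme reaction without inhibitor and -100% = no enzyme wells; top concentration of the series not given in the record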
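Fluorescence-quenching assay with 15 nM Sfp, 5 uM rhodamine-CoA and 12.5 uM BHQ-2-labelled ybbR peptide in pH 7.6 Hepes/MgCl2 buffer. Enzyme was pre-incubated with compound for 15 min at room temperature. Rate was taken from the 30-min fluorescence change (525/598 nm).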
Six1-Eya2 inh = blocks human Six1 binding to Eya2; Q15475+O00167; AlphaScreen GST-Six1/His-Eya2 binding, biochemical; active compounds read low; control for the full effect not named in the record; activity change, % (no concentration beside the values); hit rate 0.56% among 360,000; in the data active = activity change below about -65%; inconclusive = about -30% to -65%; inactive = above about -30%; further: on the % scale 0 is the no-effect control and ±100 the full control effect
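Compounds are tested against tagged Six1 and Eya2 proteins bridged by glutathione donor and nickel acceptor beads; after a one-hour incubation at 37 °C without light, AlphaScreen emission is recorded.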
D2 potentiator = positive allosteric modulators of human D2 dopamine receptor | P14416 | DiscoveRx D2 beta-arrestin cells, luminescence, 90 min; 100% = 57 uM dopamine signal | potentiation, % (test concentration not listed) | hit rate 0.23% among 360,000 | AID 624464; active = potentiation of 50% or more; inconclusive = 30% to 50%; inactive = 30% or less;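 further: compound concentration not given in the record; tested on top of an EC20 dose of dopamine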
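D2 cells co-treated with compound plus 50 nM dopamine (EC20) for 90 min at 37 deg C to detect potentiation. Beta-arrestin recruitment was read as enzyme-fragment luminescence after 1 h at ambient temperature. Full response was set by 57 uM dopamine.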
D2 agonist = agonists of human D2 dopamine receptor (beta-arrestin). DiscoveRx PathHunter D2 beta-arrestin, luminescence, 90 min; 100% = 57 uM dopamine signal. hit rate 0.084% among 360,000. AID 624465. activation, % (concentration not given with the values); in the data active = activation above about 40%; inconclusive = about 15% to 40%; inactive = below about 15%; further: compound concentration not given in the record; the text of the record calls up to 30% inactive
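DiscoveRx PathHunter D2 beta-arrestin cells (2,100/well) attached overnight, then compound-stimulated 90 min at 37 C in HBSS/10 mM HEPES/0.1% Tween-20 buffer; beta-galactosidase complementation read by luminescence after 1 h at ambient temperature. Dopamine 57 uM final (EC100) as control.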
Numbers without * were called inactive; ? = inconclusive; . = no result given; & = joins results of further samples; [ ] = dose if it differs, or a comment.

SMILES	CtBP-E1A inh	PINK1 expr mod	TRPV1 potentiator	Sfp PPTase inh	Six1-Eya2 inh	D2 potentiator	D2 agonist
C=C(C)CN1C(=O)C(O)(CC(=O)c2ccc3c(c2)OCCO3)c2ccccc21 (stereo not drawn)	-3	1.1%	1	24%	-8	-23	-0.8
CCc1noc(C)c1C(=O)N1CCCC(N2CCN(c3ccccc3F)CC2)C1 (stereo not drawn)	-19	-0.1%	-13	9%	-7	-24	-7.6
Cc1ccc(S(=O)(=O)O/N=C2\CCCc3ccccc32)cc1	0	-0.5%	8	-1%	29	6	4.0
CCn1c(SC)nnc1-c1sc2cc(Cl)ccc2c1Cl	-2	-2.4%	20	-27%	2	-12	1.5
CC(C)CCN(C(=O)c1ccc(Br)cc1)c1c(N)n(Cc2ccccc2)c(=O)[nH]c1=O	5	2.9%	6	.	-2	5	2.4
COc1cccc(OCC(O)CN2CCN(c3ncccn3)CC2)c1 (stereo not drawn)	7	1.3%	-3	-2%	-1	3	?
CC1CCCC(C)N1C(=O)Cn1c(=O)sc2ccccc21 (stereo not drawn)	3	0.9%	.	15%	1	-1	0.1
COc1cc(C(=O)N(C)Cc2cccc(OC)c2OC)ccc1OCC(=O)Nc1cccc(C(F)(F)F)c1	7	-2.7%	16	.	-10	3	4.1
CC(C)(C)OC(=O)N1CCC(c2c(C(=O)N3CCN(C(=O)c4ccco4)CC3)cnn2-c2cccc(Cl)c2)CC1	3	-0.7%&-1.3%	-16	10%	0	-1	2.9
CCOc1ccccc1-n1ccn(CC(=O)Nc2ccc(Br)cc2F)c(=O)c1=O	0	5.7%	-12	.	1	-3	-4.5
CC(=O)c1c(C)[nH]c(C(=O)OCC(=O)c2c(N)n(CC(C)C)c(=O)n(C)c2=O)c1C	.	5.5%	2	.	-7	-4	-1.0
O=C(c1ccccc1)c1cc2ccc(O)cc2oc1=O	3	-0.6%[38.3 µM]	6	-26%	2	-18	-4.6
COC(=O)c1cccc(S(=O)(=O)N(Cc2ccco2)Cc2cc3cc(OC)c(OC)cc3[nH]c2=O)c1	-24	2.2%[38.3 µM]	6	1%	-14	1	-0.3
CCCCC1(C)OC(=O)C(=Cc2c[nH]c3ccccc23)C(=O)O1 (stereo not drawn)	-1	0.6%	3	7%	-3	2	-3.8
C[N+]12CCC(CC1)C(OC(=O)C(O)(c1ccccc1)c1ccccc1)C2 (stereo not drawn)	5	5.1%	5	-1%&17%	-1	7	-3.5
NS(=O)(=O)c1ccc(CCNC(=O)CCNS(=O)(=O)c2ccccc2C(F)(F)F)cc1	1	-0.6%	1	.	0	-9	-3.6
CC(C)(C)NC(=O)C(c1ccc(-c2ccccc2)cc1)N(C[C@H]1CC[C@@H]([C@@H]2CC[C@H](CO)O2)O1)C(=O)c1ccc2ccccc2c1 (stereo partly drawn)	-10	24%	.	.	-11	.	-1.7
O=C(CSc1nc2ccc([N+](=O)[O-])cc2s1)c1ccc2ccccc2c1	.	8.7%	?	6%	0	-16	-2.0
O=Cc1cn(-c2ccccc2)nc1-c1cccc([N+](=O)[O-])c1	5	9.4%	.	.	2	0	-1.1
O=C(CSc1nnc(-c2cccnc2)n1Cc1ccccc1)NCc1ccco1	4	0.2%[38.3 µM]	8	-6%	-1	-5	-4.2

Part of the list above, set out differently:
SMILES: C[N+]12CCC(CC1)C(OC(=O)C(O)(c1ccccc1)c1ccccc1)C2 (stereo not drawn)
  CtBP-E1A inh: 5
  PINK1 expr mod: 5.1%
  TRPV1 potentiator: 5
  Sfp PPTase inh: -1%&17%
  Six1-Eya2 inh: -1
  D2 potentiator: 7
  D2 agonist: -3.5

SMILES: NS(=O)(=O)c1ccc(CCNC(=O)CCNS(=O)(=O)c2ccccc2C(F)(F)F)cc1
  CtBP-E1A inh: 1
  PINK1 expr mod: -0.6%
  TRPV1 potentiator: 1
  Sfp PPTase inh: .
  Six1-Eya2 inh: 0
  D2 potentiator: -9
  D2 agonist: -3.6

SMILES: CC(C)(C)NC(=O)C(c1ccc(-c2ccccc2)cc1)N(C[C@H]1CC[C@@H]([C@@H]2CC[C@H](CO)O2)O1)C(=O)c1ccc2ccccc2c1 (stereo partly drawn)
  CtBP-E1A inh: -10
  PINK1 expr mod: 24%
  TRPV1 potentiator: .
  Sfp PPTase inh: .
  Six1-Eya2 inh: -11
  D2 potentiator: .
  D2 agonist: -1.7

SMILES: O=C(CSc1nc2ccc([N+](=O)[O-])cc2s1)c1ccc2ccccc2c1
  CtBP-E1A inh: .
  PINK1 expr mod: 8.7%
  TRPV1 potentiator: ?
  Sfp PPTase inh: 6%
  Six1-Eya2 inh: 0
  D2 potentiator: -16
  D2 agonist: -2.0

Reprinted from the listing, three compounds:
SMILES	CtBP-E1A inh	PINK1 expr mod	TRPV1 potentiator	Sfp PPTase inh	Six1-Eya2 inh	D2 potentiator	D2 agonist
O=C(CSc1nc2ccc([N+](=O)[O-])cc2s1)c1ccc2ccccc2c1	.	8.7%	?	6%	0	-16	-2.0
O=Cc1cn(-c2ccccc2)nc1-c1cccc([N+](=O)[O-])c1	5	9.4%	.	.	2	0	-1.1
O=C(CSc1nnc(-c2cccnc2)n1Cc1ccccc1)NCc1ccco1	4	0.2%[38.3 µM]	8	-6%	-1	-5	-4.2

Further records follow.
SMILES	CtBP-E1A inh	PINK1 expr mod	TRPV1 potentiator	Sfp PPTase inh	Six1-Eya2 inh	D2 potentiator	D2 agonist
O=C(N/N=C/c1ccoc1)c1ccccc1	3	-1.3%	-7	0%	-6	-5	-3.1
CC(=O)Nc1ccc(S(=O)(=O)N(C)CC(=O)OCC(=O)N2CCCCC2)cc1	3	-1.5%	-3	.	7	-13	-2.0
O=C(NCCNS(=O)(=O)c1ccccc1Cl)c1cc(OCC(F)(F)F)ccc1OCC(F)(F)F	-5	0.8%	-24	11%	6	-2	-1.8
CCc1nc2c(OCc3ccc(OC)cc3)cccn2c1N(C)C(=O)C(C)C	-3	0.0%	.	.	10	-12	-2.1
CC1(C)NC(=O)N(CCCCOc2ccc(Cl)cc2)C1=O	0	-0.5%	-6	11%	0	4	0.0
CCN(C)C1CN(Cc2cn(Cc3ccccc3)nn2)S(=O)(=O)C1 (stereo not drawn)	4	-0.5%	.	.	7	.	.
N#Cc1ccc(-c2csc(NNC(=O)c3ccccc3)n2)cc1	-1	0.8%	1	-10%	6	0	4.0
Cc1ccc(S(=O)(=O)n2ccc3c(OCCOCCNCc4ccc(F)cc4)cccc32)cc1	4	-2.6%	26	71µM*	-4	-13	4.7
O=Cc1ccc2c(c1)CCN2Cc1ccccc1	7	0.7%	-14	-1%	-1	-4	-5.2
CCN1CCN(c2cc(SC(C)C)nc(-c3ccc(OC)cc3)n2)CC1	-19	-3.0%	-8	-23%	-18	-37	-4.6
O=C(O)CCC(CNS(=O)(=O)c1ccccc1)C(F)(F)F (stereo not drawn)	0	0.3%	-5	21%	-2	-6	-15
CCCCSc1nc(NCc2ccco2)c2c3c(sc2n1)COC(C)(C)C3	1	-0.9%	-3	?	1	6	2.6
CC(=O)c1ccc(OCC(O)CN2CCN(CCN3C(=O)c4cccc5cccc(c45)C3=O)CC2)cc1 (stereo not drawn)	-16	-2.3%	-1	-8%	-16	-22	-2.9
COc1ccc2nc(NC(=O)CS(=O)(=O)Cc3ccccc3)sc2c1	.	12%	-7	1%	-14	-5	-6.4
Clc1ccc(C2CSc3c4ncnc-4ncn32)cc1 (stereo not drawn)	-22	0.5%	-18	4%	1	-5	0.4
Cc1cccc(-n2ncc3c(N4CCC5(CC4)OCCO5)ncnc32)c1	-4	6.7%	17	8%	6	-4	-3.8
CC(=O)Nc1ccc(SCC(=O)N(C)C2CCS(=O)(=O)C2)cc1 (stereo not drawn)	5	-1.4%	5	12%	-3	-1	-3.0
CN(Cc1ccccc1)C(=O)c1ccc(Nc2nc(C(N)Cc3ccccc3)cs2)nc1 (stereo not drawn)	?	-1.2%	.	.	-24	-1	-3.2
NC(=O)CSc1nnc(COc2ccccc2)n1Cc1ccco1	10	0.8%	-1	6%	-4	-8	-19
CSCCC(NC(=O)c1cccc([N+](=O)[O-])c1)C(=O)O (stereo not drawn)	2	0.6%	27	15%	9	-14	-2.1
O=C(Nc1ccc(N2CCOCC2)c(S(=O)(=O)Nc2ccccc2Cl)c1)c1ccc(F)cc1	-5	0.2%	.	.	-11	-21	-1.4
Cc1ccc(S(=O)(=O)NC(=O)C2(C)CCN2C(=O)CC2CCCC2)cc1 (stereo not drawn)	4	0.9%	.	.	6	-6	-5.8
CN(CC(=O)OCC(=O)NCc1ccccc1)S(=O)(=O)c1ccc(F)cc1	3	2.4%	12	.	-2	-2	-0.5
O=C(Cn1cccc1C(=O)c1ccccc1)NCc1cccnc1	7	-0.9%	-2	15%	-2	4	-4.7
Cc1c(NC(=O)Cc2ccccc2)cccc1C(=O)NN1C(=O)c2ccccc2C1=O	-5	-1.5%	2	7%	2	-9	-4.5
Cc1cc(NS(=O)(=O)c2ccc(Cl)cc2)nn1CC(=O)NCc1ccco1	2	-1.0%	.	-5%	4	13	-0.9
CCOCCc1nnc(NC(=O)c2cc(OC)c(OC)c(OC)c2)s1	7	-0.1%	-3	11%	4	-9	-3.0
CN(C)C1(CNC(=O)Nc2ccccc2)CCCCC1	3	0.2%	-1	19%	0	-11	-2.3
O=C(C1CCN(c2ncnc3c2nc2n3CCCCC2)CC1)N1CCCCC1	.	-0.3%	11	7%	-8	-8	6.5
Cc1nc(C)c(C(=O)N2CCCC(C(=O)c3ccc4ccccc4c3)C2)s1 (stereo not drawn)	-13	2.4%	1	-3%	-8	-12	-1.2
O=C(Cc1ccccc1)Nc1cccc(C(=O)O)c1O	4	-1.7%	1	13%	3	-3	-4.1
